Screening data as filed in PubChem BioAssay.
rRNA inh HTS – inhibits bacterial ribosomal RNA function over humanized ribosomes | E. coli WT GFP vs humanized-ribosome RFP mutants, fluorescence, 24 h; active compounds read low; DMSO median 0, no signal -100 | GFP signal change (wild-type ribosome), % (test concentration not listed) | 350,000 compounds, 1.6% hits | AID 720706;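 active = significant combined selectivity score with lowered wild-type GFP, culture density cut under 30%, mutant RFP and density less affected; inactive = any of these conditions unmet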; note: one replicate is shown; some compounds called inactive have numbers as strong as hits
FGF22 binding – shifts melting point of recombinant human FGF22. Q9HCT0. recombinant FGF22 thermal shift, SYPRO orange fluorescence; percent of sucrose octasulfate shift, DMSO zero. calls only at 9.99 µM. 340,000 compounds, 1.5% hits. AID 651658;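 active = melting point raised past a set limit in the mean and every replicate; three in four hits are not shown here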
Target sequence (Q9HCT0 whole entry, looked up): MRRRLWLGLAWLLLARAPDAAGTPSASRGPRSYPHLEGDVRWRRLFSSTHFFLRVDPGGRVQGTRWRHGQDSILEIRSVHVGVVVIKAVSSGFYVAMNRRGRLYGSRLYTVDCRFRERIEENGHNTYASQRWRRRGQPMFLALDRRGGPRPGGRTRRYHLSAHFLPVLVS
rRNA inh HTS OD600 – second read-out of rRNA inh HTS, no call of its own (marks repeat the call); OD600 change, %; measured here: OD600 growth;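 optical density of the mix in the first replicate; 0 = DMSO median and -100 = no signal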
rRNA inh HTS RFP – also measured in rRNA inh HTS; calls as there; RFP signal change, %; measured here: RFP humanized mutant strains;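 first replicate; 0 = DMSO median and -100 = no signal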
Numbers without * were called inactive; i = inactive. The list is partial; count on the stated rates, not on these rows.

SMILES	rRNA inh HTS	rRNA inh HTS OD600	rRNA inh HTS RFP	FGF22 binding
O=C(c1ccncc1)N1CC[C@@H]2[C@@H](CO)Nc3ccc(-c4ccccc4)cc3[C@@H]21	0.4	3.8	-4.2	i
COCC(=O)Nc1ccc2c(c1)C(=O)N(C)C[C@@H](OC)[C@H](C)CN(C(=O)c1cnccn1)[C@@H](C)CO2	1.7	1.0	0.4	i
Cc1noc(C)c1S(=O)(=O)Nc1cccc2c1O[C@H](CN(C)C(=O)NC(C)C)[C@H](C)CN([C@H](C)CO)C2=O	3.0	-2.0	-1.4	i
C[C@@H]1CCCCO[C@H](CN(C)C(=O)Cc2ccccc2)[C@H](C)CN([C@@H](C)CO)C(=O)c2cc(NC(=O)C3CCCCC3)ccc2O1	-4.1	-7.9	0.8	i
COc1cccc(S(=O)(=O)N(C)C[C@@H]2Oc3ncc(C#CC(C)(C)O)cc3C(=O)N([C@H](C)CO)C[C@@H]2C)c1	-6.2	-7.5	-1.5	i
CC(=O)N(C)C[C@@H]1Oc2ncc(C#Cc3ccccn3)cc2C(=O)N([C@H](C)CO)C[C@H]1C	1.8	5.2	-1.8	i
C[C@H](CO)N1C[C@H](C)[C@H](CN(C)C)Oc2ncc(C#CCN(C)C)cc2C1=O	6.1	7.8	0.6	i
COc1ccc(S(=O)(=O)N(C)C[C@@H]2OCCCC[C@@H](C)Oc3ccc(NC(=O)CCCN(C)C)cc3C(=O)N([C@H](C)CO)C[C@H]2C)cc1	1.8	13.5	-2.3	i
CO[C@H]1CN(C)C(=O)c2cc(NC(=O)C3CC3)ccc2OC[C@H](C)N(C(=O)c2ccccc2)C[C@H]1C	0.6	3.7	-2.2	i
CCCNC(=O)C[C@H]1C[C@H]2c3cc(NS(=O)(=O)c4cccc(OC)c4)ccc3O[C@H]2[C@H](CO)O1	-6.0	-26.4	36.2	i
CNC[C@H]1Oc2c(NC(=O)Nc3ccc(C(F)(F)F)cc3)cccc2C(=O)N([C@H](C)CO)C[C@H]1C	-4.8	-7.6	0.8	i
CC(C)NC(=O)Nc1ccc2c(c1)C(=O)N([C@H](C)CO)C[C@@H](C)[C@H](CN(C)CC1CCCCC1)OCCCC[C@@H](C)O2	1.0	1.8	1.2	i
CO[C@@H]1CN(C)C(=O)c2ccc(NC(C)=O)cc2OC[C@@H](C)N(C(=O)C2CCCCC2)C[C@H]1C	-0.3	-2.8	0.4	i
COCC(=O)N1C[C@H]2[C@@H](c3ccccc31)[C@H](CO)N2C(=O)c1ccncc1	0.5	19.7	-2.4	i
C[C@H]1CCCCO[C@H](CN(C)C)[C@@H](C)CN([C@@H](C)CO)C(=O)c2cc(NS(=O)(=O)c3ccccc3)ccc2O1	4.4	-5.4	-1.2	i
C[C@@H]1CCCCO[C@H](CN(C)S(=O)(=O)c2cccs2)[C@@H](C)CN([C@@H](C)CO)C(=O)c2cc(N(C)C)ccc2O1	-6.5	-0.9	-2.5	i
CN1c2ccc(-c3ccccc3F)cc2[C@H]2[C@H](CCN2C(=O)Cc2ccccn2)[C@H]1CO	-4.3	-15.7	1.6	i
C[C@H]1CN([C@@H](C)CO)C(=O)c2cc(C#Cc3ccccc3)cnc2O[C@@H]1CN(C)C(=O)CCN1CCCCC1	0.0	11.2	0.9	i
COc1ccc(NC(=O)N2C[C@@H](O)COC[C@@H]3O[C@@H](CC(=O)N4CCN(C)CC4)CC[C@H]32)cc1	5.4	10.5	-3.6	i
O=C(C[C@H]1CC[C@H](NC(=O)CN2CCOCC2)[C@H](CO)O1)NCc1cccc(F)c1	3.6	5.4	-0.6	i

Reformatted field by field: part of the list above.
CC(=O)N(C)C[C@@H]1Oc2ncc(C#Cc3ccccn3)cc2C(=O)N([C@H](C)CO)C[C@H]1C
  rRNA inh HTS: 1.8
  rRNA inh HTS OD600: 5.2
  rRNA inh HTS RFP: -1.8
  FGF22 binding: i
C[C@H](CO)N1C[C@H](C)[C@H](CN(C)C)Oc2ncc(C#CCN(C)C)cc2C1=O
  rRNA inh HTS: 6.1
  rRNA inh HTS OD600: 7.8
  rRNA inh HTS RFP: 0.6
  FGF22 binding: i
COc1ccc(S(=O)(=O)N(C)C[C@@H]2OCCCC[C@@H](C)Oc3ccc(NC(=O)CCCN(C)C)cc3C(=O)N([C@H](C)CO)C[C@H]2C)cc1
  rRNA inh HTS: 1.8
  rRNA inh HTS OD600: 13.5
  rRNA inh HTS RFP: -2.3
  FGF22 binding: i
CO[C@H]1CN(C)C(=O)c2cc(NC(=O)C3CC3)ccc2OC[C@H](C)N(C(=O)c2ccccc2)C[C@H]1C
  rRNA inh HTS: 0.6
  rRNA inh HTS OD600: 3.7
  rRNA inh HTS RFP: -2.2
  FGF22 binding: i

Next part
SMILES	rRNA inh HTS	rRNA inh HTS OD600	rRNA inh HTS RFP	FGF22 binding
COc1ccc2c3c([nH]c2c1)[C@@H](CO)N(C)CC31CCN(C(=O)Nc2c(C)noc2C)CC1	3.1	9.9	-1.8	i
CCC(=O)N1[C@@H]2c3cccc(=O)n3C[C@@H]2[C@@H](CO)[C@@H]1C(=O)NC1CCC1	-3.7	-1.8	-4.7	i
C[C@@H]1CN([C@@H](C)CO)C(=O)c2cc(NC(=O)Nc3ccc4c(c3)OCO4)ccc2O[C@@H](C)CCCCO[C@H]1CN(C)S(=O)(=O)c1ccccc1	-1.3	5.6	-2.4	i
C[C@@H]1CN([C@@H](C)CO)C(=O)c2cc(C3=CCCC3)cnc2O[C@@H]1CN(C)S(=O)(=O)c1cn(C)cn1	7.2	5.8	-2.5	i
O=C(C[C@@H]1CC[C@H](NC(=O)CN2CCOCC2)[C@H](CO)O1)NC1CCCCC1	-0.2	3.2	1.7	i
CCCC#Cc1ccc2c(c1)O[C@@H](CN(C)C(=O)COC)[C@H](C)CN([C@H](C)CO)S2(=O)=O	1.7	8.1	-3.4	i
CN(C)CCCNC(=O)C[C@H]1C=C[C@@H](NS(=O)(=O)c2ccc(F)cc2)[C@H](CO)O1	-1.4	-1.2	-0.8	i
Cc1noc(C)c1NC(=O)N(C)C[C@H]1Oc2ccc(NC(=O)Nc3ccc4c(c3)OCO4)cc2C(=O)N([C@@H](C)CO)C[C@@H]1C	5.4	6.6	0.9	i
COCC#Cc1cnc2c(c1)C(=O)N([C@H](C)CO)C[C@@H](C)[C@@H](CN(C)S(=O)(=O)c1cccc(OC)c1)O2	0.7	5.7	0.7	i
CCOC(=O)N[C@@H](Cc1cccnc1)C(=O)N1CCC[C@H]1C(=O)NCCc1ccccc1Cl	4.2	4.3	5.5	i
COCC(=O)Nc1ccc2c(c1)[C@H]1C[C@H](CC(=O)N3CCCCC3)O[C@@H](CO)[C@H]1O2	3.8	3.2	0.1	i
O=C(C[C@@H]1C[C@H]2c3cc(NC(=O)Nc4ccc(C(F)(F)F)cc4)ccc3O[C@H]2[C@@H](CO)O1)NC1CCCCC1	2.1	-3.8	2.3	i
C[C@@H]1CN([C@H](C)CO)C(=O)c2cccc(NC(=O)C3CCCCC3)c2O[C@H]1CN(C)C(=O)Nc1cccc2ccccc12	3.5	-7.6	1.5	i
O=C(C[C@@H]1CC[C@H](NC(=O)CC2CC2)[C@@H](CO)O1)NCc1ccc(Cl)cc1	1.9	8.8	3.5	i
COC(=O)C[C@@H]1C[C@@H]2c3cc(NS(=O)(=O)c4cccc(OC)c4)ccc3O[C@@H]2[C@@H](CO)O1	-3.5	-3.0	-1.9	i
CC(C)NC(=O)N(C)C[C@H]1OCCCC[C@@H](C)Oc2ccc(NS(=O)(=O)c3ccc(F)cc3)cc2C(=O)N([C@H](C)CO)C[C@H]1C	-2.1	-6.6	-0.1	i
O=C(C[C@H]1CC[C@H]2[C@@H](COC[C@H](O)CN2Cc2ccccc2)O1)N[C@@H]1CCN(Cc2ccccc2)C1	-2.2	-10.3	0.4	i
C[C@@H]1CCCCO[C@H](CN(C)C(=O)Nc2ccc3c(c2)OCO3)[C@@H](C)CN([C@H](C)CO)C(=O)c2cc(NC(=O)NC3CCCCC3)ccc2O1	1.4	-1.9	-2.3	i
C[C@H](CO)N1C[C@H](C)[C@H](CN(C)Cc2ccc(-c3ccccc3)cc2)Oc2cc(C#C[C@@H](C)O)ccc2S1(=O)=O	-1.2	-15.3	8.6	i
Cc1ccc(S(=O)(=O)Nc2ccc3c(c2)C(=O)N([C@H](C)CO)C[C@H](C)[C@H](CN(C)Cc2ccccc2)OCCCC[C@H](C)O3)cc1	6.8	-45.3	34.5	i
C[C@@H]1CN([C@H](C)CO)C(=O)Cc2cc(NC(=O)CCCCCC(=O)Nc3ccccc3N)ccc2O[C@@H]1CN(C)Cc1ccc2c(c1)OCO2	-2.6	-0.1	3.5	i
CN(C)CC(=O)N[C@@H]1C=C[C@H](CC(=O)NCCN2CCCCC2)O[C@H]1CO	1.3	2.3	-1.1	i
C[C@H](CO)N1C[C@H](C)[C@H](CN(C)C(=O)Nc2ccc3c(c2)OCO3)Oc2ccc(NC(=O)C3CCCCC3)cc2C1=O	-5.4	-6.2	0.3	i
C[C@@H]1CN([C@@H](C)CO)C(=O)c2cc(NC(=O)CCC(F)(F)F)ccc2O[C@@H](C)CCCCO[C@H]1CN(C)C(=O)NC1CCCCC1	-1.8	-3.9	-2.9	i
Cc1ccc(S(=O)(=O)N[C@H]2CC[C@H](CC(=O)O)O[C@@H]2CO)cc1	1.6	11.6	0.8	i
CCCNC(=O)N[C@H]1C=C[C@H](CC(=O)N2CCN(C)CC2)O[C@H]1CO	0.5	0.2	-0.7	i
O=C(C[C@@H]1CC[C@H]2[C@@H](COC[C@@H](O)CN2C(=O)Nc2cccc(Cl)c2)O1)NCC1CCCCC1	-55.2	-79.3	-13.9	i
C[C@@H]1CN([C@@H](C)CO)C(=O)c2cc(-c3ccccc3F)cnc2O[C@@H]1CN(C)C	8.2	7.3	-1.6	i
C[C@@H](NC(=O)C[C@H]1C=C[C@H](NC(=O)C2CCC2)[C@H](CO)O1)c1ccccc1	2.2	-2.8	-1.2	i
COc1ccc(NC(=O)N(C)C[C@H]2Oc3ccc(NC(=O)CCC(F)(F)F)cc3CC(=O)N([C@@H](C)CO)C[C@@H]2C)cc1	-1.2	-5.9	-0.7	i
C[C@@H]1CCCCO[C@@H](CN(C)Cc2ccc3c(c2)OCO3)[C@@H](C)CN([C@H](C)CO)C(=O)c2cc(NC(=O)Nc3cccc4ccccc34)ccc2O1	2.7	3.4	2.2	i
O=C(c1ccccn1)N1CC2(C1)[C@@H](c1ccccc1)[C@@H](CO)N2C(=O)C1CCCCC1	-0.6	4.7	1.4	i
Cc1ccc(S(=O)(=O)N(C)C[C@H]2OCCCC[C@H](C)Oc3ccc(NC(=O)Nc4ccc(C(F)(F)F)cc4)cc3C(=O)N([C@H](C)CO)C[C@@H]2C)cc1	-3.0	-1.0	-2.7	i
COCC(=O)Nc1ccc2c(c1)C(=O)N(C)C[C@H](OC)[C@H](C)CN(Cc1cccc(F)c1)[C@@H](C)CO2	-4.3	0.2	3.0	i
C[C@@H]1CN([C@@H](C)CO)C(=O)c2cc(NC(=O)C3CC3)ccc2O[C@H]1CN(C)Cc1ccc(C(=O)Nc2ccccc2N)cc1	-1.3	6.3	-0.5	i
C[C@H]1CCCCO[C@H](CN(C)C(=O)Nc2ccccc2)[C@@H](C)CN([C@@H](C)CO)C(=O)c2cc(NC(=O)CCC(F)(F)F)ccc2O1	-4.2	-6.1	2.8	i
CNC[C@H]1Oc2ccc(NC(=O)NC3CCCCC3)cc2CC(=O)N([C@H](C)CO)C[C@H]1C	1.3	-2.1	-3.7	i
COc1ccc(S(=O)(=O)N(C)C[C@H]2Oc3cc(C#CC4CC4)ccc3S(=O)(=O)N([C@H](C)CO)C[C@H]2C)cc1	4.3	2.3	1.0	i
O=C(O)C[C@@H]1C[C@H]2c3cc(NC(=O)C4CCOCC4)ccc3O[C@H]2[C@H](CO)O1	-0.5	2.6	2.0	i
C[C@H](CO)N1C[C@H](C)[C@@H](CN(C)Cc2ccc(Oc3ccccc3)cc2)Oc2ccc(NC(=O)C3CCCCC3)cc2CC1=O	5.0	-6.3	9.7	i
COc1ccc(S(=O)(=O)N[C@@H]2CC[C@H](CC(=O)N3CCc4ccccc4C3)O[C@@H]2CO)cc1	-3.5	-12.1	-3.6	i
CCCC(=O)Nc1ccc2c(c1)C(=O)N(C)C[C@@H](OC)[C@@H](C)CN(CCC(F)(F)F)[C@H](C)CO2	-0.6	-0.7	-1.2	i
COc1ccc(NC(=O)N(C)C[C@@H]2Oc3ccc(NC(=O)CCN4CCOCC4)cc3C(=O)N([C@@H](C)CO)C[C@@H]2C)cc1	-1.5	-7.8	-0.1	i
O=C(C[C@@H]1CC[C@@H]2[C@H](COC[C@H](O)CN2Cc2ccc(Oc3ccccc3)cc2)O1)N1CCOCC1	-8.4	-27.4	5.1	i
O=C(CCN1CCCCC1)N[C@@H]1CC[C@@H](CCNS(=O)(=O)c2ccc(Cl)cc2)O[C@@H]1CO	-3.5	0.2	-1.3	i
CCc1cnc(N2[C@H](CO)[C@H](c3ccc(C#CCC4CCCC4)cc3)[C@@H]2C#N)s1	-3.2	-1.8	-0.4	i
C[C@@H]1CN([C@@H](C)CO)C(=O)c2cc(C#Cc3cccc(F)c3)cnc2O[C@H]1CN(C)C(=O)c1ccccc1F	-6.3	-30.6	7.7	i
O=S(=O)(c1ccc(F)cc1)N1CC[C@H]2[C@H](CO)Nc3ccc(Br)cc3[C@H]21	-44.8	-52.7	15.1	i
N#C[C@H]1[C@@H](c2ccccc2)[C@@H](CO)N1C(=O)Cc1ccccc1	3.4	25.4	-1.8	i
C[C@@H]1CN([C@@H](C)CO)C(=O)c2cc(NC(=O)C3CCCCC3)ccc2O[C@@H]1CN(C)S(C)(=O)=O	2.1	-2.2	-1.5	i
